Mtb H37Rv – M. tuberculosis H37Rv growth inhibitors, H37Rv strain (AID 1626) | M. tuberculosis H37Rv growth inhibition; higher % means a stronger effect | one-dose inhibition, % at 10 µM; IC50 in µM for titrated hits | 220,000 tested, 0.95% active;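 active means confirmed in a dose series; inconclusive means inhibition above 80% but not taken into the dose series; inactive means below 80% or under 30% at every dose of the series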;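 further: bacteria incubated seven days before Alamar blue readout; 0% = bacteria only wells and 100% = bacteria with antibiotic wells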
Arbovirus anti – blocks arbovirus infection | inhibition, % at 10 µM | AID 1251 | 200,000 tested, 0.37% active | arbovirus infection cell-based antiviral screen;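 active means inhibition from about 30%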;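 further: bluetongue infection of BSR cells; cell survival read as ATP light after 72 h; 0% = infected wells without compound and 100% = uninfected wells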
RecA splice inh – inhibitors of M. tuberculosis RecA intein splicing; 290,000 tested, 0.75% active; AID 2221; inhibition, %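 (about 9 µM by stock and volumes)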; P9WHJ3; cell-free RecA intein splicing, fluorescence; in the data active means inhibition above about 30%; inconclusive means no clear call, values can overlap the other calls;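 further: 0% = vehicle wells and 100% = reference inhibitor control wells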
Target sequence (P9WHJ3 whole entry, looked up, canonical isoform): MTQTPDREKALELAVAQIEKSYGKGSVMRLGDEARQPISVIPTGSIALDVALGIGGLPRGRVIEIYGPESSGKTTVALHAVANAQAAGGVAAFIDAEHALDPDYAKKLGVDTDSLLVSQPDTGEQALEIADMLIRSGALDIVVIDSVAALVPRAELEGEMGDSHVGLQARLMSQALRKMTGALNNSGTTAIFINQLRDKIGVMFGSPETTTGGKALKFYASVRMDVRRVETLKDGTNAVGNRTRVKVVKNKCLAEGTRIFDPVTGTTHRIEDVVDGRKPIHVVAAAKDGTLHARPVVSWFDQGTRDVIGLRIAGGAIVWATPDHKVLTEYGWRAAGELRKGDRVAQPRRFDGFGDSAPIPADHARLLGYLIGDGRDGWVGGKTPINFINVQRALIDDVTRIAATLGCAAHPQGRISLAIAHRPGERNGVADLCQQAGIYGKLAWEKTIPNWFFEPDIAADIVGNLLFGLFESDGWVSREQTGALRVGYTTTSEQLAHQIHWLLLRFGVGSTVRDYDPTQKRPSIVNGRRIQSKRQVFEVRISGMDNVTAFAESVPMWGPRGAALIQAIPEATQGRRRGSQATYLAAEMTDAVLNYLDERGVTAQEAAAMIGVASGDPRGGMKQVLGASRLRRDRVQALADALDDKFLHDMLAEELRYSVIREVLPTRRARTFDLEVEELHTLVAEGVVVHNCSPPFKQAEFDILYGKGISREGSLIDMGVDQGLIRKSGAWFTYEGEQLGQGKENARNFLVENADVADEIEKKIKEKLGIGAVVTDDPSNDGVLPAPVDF
YopH inh – blocks Yersinia enterocolitica YopH tyrosine phosphatase; fluorescence Ex485/Em525; inhibition, %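 (about 10 µM by stock and volumes)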; 140,000 tested, 0.16% active;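 active means inhibition of 50% or more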;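 further: controls were vehicle for no effect and minimum signal wells for full effect; inactives centre near -20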
Mtb betalactam – beta-lactam sensitization of Mtb H37Rv; 330,000 tested, 0.27% active; M. tuberculosis H37Rv growth with meropenem, percent inhibition; hits of this screen are not shown here; AID 434955; inhibition, % at 25 µM;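 active means about 74% or more and at least 40 points above the plate without the antibiotic, then above 30% in a dose series; inconclusive means first-round hits that could not be retested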;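 further: growth measured after seven days incubation then overnight dye step; 0% = bacteria only wells and 100% = bacteria with antibiotic; twin plates without the antibiotic show which effects depend on it; some results filed as inactive read as strong as hits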
Arbovirus anti repeat – recorded beside Arbovirus anti, whose call it bears; inhibition, %; measured here: 10K subset replicate screen; many hits read low in the repeat;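 first of two repeat runs on a subset; 0% = infected and 100% = uninfected wells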
* = called active by the depositor; u = inconclusive; x = no result given.

SMILES	Mtb H37Rv	Arbovirus anti	RecA splice inh	YopH inh	Mtb betalactam	others
CC(=O)c1c(C)nc2sc3c(=N)n(N)cnc3c2c1-c1ccc(Cl)cc1	9.8%	-24.2	6.0	-17.0	11.3
CC(=O)Nc1ccc(S(=O)(=O)N2CCOCC2)cc1	-8.1%	0.8	x	-35.3	-5.2
Cc1ccc(S(=O)(=O)N(CC(=O)NCCSCc2ccco2)c2cc(C)ccc2C)cc1	-9.1%	x	11.7	-23.6	-6.8
Cn1ncc2c(N3CCOCC3)ncnc21	-3.9%	-0.5	-1.3	-32.8	-1.8
CC(=O)OC1CC(C)(C)N(OC(=O)CCCN2C(=O)c3ccccc3C2=O)C(C)(C)C1	-6.9%	5.7	0.9	-35.1	-8.6
CCc1nc(SCC(=O)N2CCN(c3ccccc3)CC2)c2c(=O)n(C)c(=O)n(C)c2n1	-12.0%	2.0	x	x	x
CC(=O)Nc1ccc(NC(=O)C(C)OC(=O)c2ccccc2C(=O)c2ccc(Cl)c([N+](=O)[O-])c2)cc1 (stereo not drawn)	-5.0%	3.9	0.9	-14.3	2.1
Cc1cc(C)cc(NC(=O)CS(=O)(=O)c2ccccc2)c1	x	x	-0.5	x	-3.0
C=CCn1c(O)c(N=NC(=O)c2ccc3c(c2)OCO3)c2ccccc21	6.7%	3.6	2.0	-4.2	81.1
O=C(C1=C(O)C(=O)N(CCOCCO)C1c1cccs1)c1cccs1 (stereo not drawn)	-1.9%	-9.0	-0.9	-46.2	-0.2
COc1ccc(N2CCN(C(=O)CCS(=O)(=O)c3ccc4c(c3)CCN4C(=O)C3CC3)CC2)cc1	x	x	-1.6	x	3.5
CSc1ccc(COC(=O)CCS(=O)(=O)c2ccc(C)cc2)cc1	x	x	-0.6	x	-3.4
[O-][N+]12CCCCC1CCCC2CO (stereo not drawn)	1.6%	x	-0.5	x	-16.3
O=C1C2CC=C(Cl)CC2C(=O)N1CCC[n+]1cccc2ccccc21 (stereo not drawn)	2.9%	-5.6	-4.1	-25.7	-3.2
COc1cccc(CN2CC(C(=O)NCCOc3ccccc3F)CCC2=O)c1 (stereo not drawn)	x	x	1.9	x	-2.2
O=C(Nc1nnc(-c2ccco2)o1)c1cccc(N2C(=O)CCC2=O)c1	2.4%	1.9	2.2	x	-4.7
CCC(=O)NCCCc1nc(-c2ccccc2)no1	-4.7%	x	2.1	x	-6.5
O=[N+]([O-])c1cc(S(=O)(=O)N2CCCC2)ccc1N/N=C/c1ccncc1	-1.8%	-13.6	0.1	-19.8	3.5
Cc1ccc(S(=O)(=O)N(c2cccc(C)c2)C2CCS(=O)(=O)C2)cc1 (stereo not drawn)	-4.0%	-3.3	-1.8	-5.3	-15.8
O=C(/C=C/c1ccccc1)N1CCC(N2CCC(C(=O)N3CCOCC3)CC2)CC1	7.1%	3.1	-1.9	x	-4.6
O=C1CCCC2=C1C(c1ccc(O)c(O)c1)Nc1ccc3ncccc3c12 (stereo not drawn)	0.6%	-8.9	-4.7	x	-3.2
CC1(C)CC(=O)C(C=Nc2ccc(O)cc2)=C(O)C1	1.6%	-10.6	-6.2	-21.5	-8.5
Cc1ccccc1NC1=NC(C)(C)N=C(N)N1	-3.8%	20.3	0.4	-3.1	-12.4
Cc1cccc(C)c1NC(=O)C(NC(=O)c1ccccn1)c1ccc([N+](=O)[O-])cc1 (stereo not drawn)	7.7%	0.5	-1.5	-55.1	-0.7
Nn1cnc2c(c1=O)C1(CCCCC1)Cc1ccccc1-2	6.3%	-15.7	2.5	-24.2	8.1
C/C(=N\O)c1cc(Cl)cc(Cl)c1O	-4.4%	x	-0.1	x	6.2
COc1ccc(-c2nc(CCl)cs2)cc1OC	3.0%	0.6	0.6	x	4.6
O=C(NC1CCCCCC1)c1c(F)c(F)c(F)c(F)c1F	1.2%	7.2	-5.3	-20.2	7.2	Arbovirus anti repeat=2.2
C=CCn1c(O)c(C(C)=NCCCn2ccnc2)c(=O)[nH]c1=O	-1.3%	x	-1.3	x	-0.1
CCOC(=O)c1ccc(N/C(=N\S(=O)(=O)c2ccccc2C)c2ccccc2)cc1	12.7%	3.9	10.1	-25.0	73.2
O=C(NC1CCCC1)C1CCN(S(=O)(=O)N2CCCCC2)CC1	x	5.4	1.4	-14.0	-0.2
Cc1ccc(SCCN2CCC(NC(=O)OCc3ccccc3)CCC2=O)cc1 (stereo not drawn)	x	x	0.2	x	2.9
Cn1c(SCC(=O)NC2CCCCC2)nnc1-c1cccc(N)c1	2.7%	9.1	-0.7	4.5	-9.3
Cc1cc(F)ccc1S(=O)(=O)Nc1ccccc1C(=O)NCc1ccccn1	-0.2%	12.9	x	x	-5.9
COc1cc(NC(=O)COC(=O)CCCC2=NS(=O)(=O)c3ccccc3N2)cc(OC)c1	x	x	1.8	x	-4.5
O=C(CN1CCN(c2ccccc2)CC1)Nc1ccncc1	x	x	-0.5	x	-0.9
COc1ccc(-c2noc(CSc3nc(N)c(-c4ccccc4)c(=O)[nH]3)n2)cc1	6.9%	6.3	2.9	-47.8	4.5
CN(C)c1ccc(-c2nnc(-c3cccnc3)o2)cc1	x	x	0.2	x	4.7
CC1CCCCN1S(=O)(=O)c1ccc2[nH]c(=O)cc(C(=O)NCCCN3CCCCCC3)c2c1 (stereo not drawn)	x	x	-2.1	x	4.3
COc1cccc(NC(=O)Cc2cn(C)c3ccccc23)c1	6.5%	-15.4	2.2	-19.4	16.5
Nc1ccc(-c2nc3c(Cl)c(N)ccc3[nH]2)cc1	-7.3%	-0.9	-1.9	-10.7	u
Cc1c(Br)cc(C(=O)N2CCCCCC2)c(C)c1C	x	25.9	5.8	-21.3	29.5
Cc1ccnc(NC(=O)c2cccc(S(=O)(=O)N3CCN(c4ccc(F)cc4)CC3)c2)c1	x	x	1.5	x	-8.3
CN1CCN(c2ccc([N+](=O)[O-])cc2C(=O)c2ccccc2)CC1	-0.2%	-10.3	-0.4	-6.1	-5.7
CCN1CCc2c(C#N)c(N3CCOCC3)nc(NCc3ccccc3)c2C1	x	1.7	-64.4	8.2	x
CC(=O)c1ccc(N(CC(=O)NC2CCCC2)C(=O)CNC(=O)c2ccco2)cc1	x	x	0.1	x	-12.8
CCOC(=O)C1CCN(C(=O)c2[nH]c3ccc(OC)cc3c2C)CC1	x	x	0.3	x	-1.1
Cc1[nH]c2ccc(C(=O)N3CCN(c4ccc(F)cc4)CC3)cc2c1C	x	x	5.7	x	2.2
CC1=C(C(=O)OCC(Br)(Br)Br)C(c2cccc([N+](=O)[O-])c2)NC(=O)N1CCCC(=O)O (stereo not drawn)	-6.9%	x	-3.6	x	-12.0
CCOc1ccc(C2/C(=C(\O)c3ccc4c(c3)OCCO4)C(=O)C(=O)N2CCCn2ccnc2)cc1OC (stereo not drawn)	x	x	-0.2	x	0.7
COc1ccc(CN2C(=O)c3ccc(C(=O)O)cc3C2=O)cc1	x	x	-1.2	x	-9.8
COc1ccc(CN2CCNC(=O)C2CC(=O)N(C)Cc2ccno2)c(F)c1 (stereo not drawn)	x	x	-0.6	x	u
COc1ccc(CN2C(=O)C(CC(C)C)Nc3ncnc(N4CCOCC4)c32)cc1 (stereo not drawn)	x	x	-1.5	x	-23.0
CC(=O)NC(NC(=S)Nc1ccccc1Br)C(Cl)(Cl)Cl (stereo not drawn)	-4.9%	1.4	-0.4	x	-0.8
CCOC(=O)N/N=C(\C)c1ccccc1OC(F)F	11.2%	0.0	1.0	-27.7	2.3
S=c1[nH]nc(-c2cccc(Cl)c2)n1CCN1CCCCC1	0.2%	9.8	-1.0	-17.4	-11.9
O=C(NCCCN1CCCC1=O)c1ccc(Cl)c(NS(=O)(=O)c2ccc(F)cc2)c1	-4.2%	1.3	-1.4	-36.9	2.2
C/C(=N\NC(=O)c1ccncc1)c1cc2ccccc2oc1=O	u	4.1	93.3*	-14.0	99.7
O=C(N/N=C/c1ccc([N+](=O)[O-])s1)c1ccccc1	u	-16.7	-5.9	x	99.6
CSc1cccc(N2CC(C(=O)Nc3ccccc3N3CCCC3)CC2=O)c1 (stereo not drawn)	x	x	2.2	x	-6.5
Further records follow:
SMILES	Mtb H37Rv	Arbovirus anti	RecA splice inh	YopH inh	Mtb betalactam	others
O=C(CNC(=O)c1cccs1)NCC(=O)OCc1ccc(Cl)cc1Cl	3.0%	-2.5	1.7	-52.9	-1.6
CCC(C)(C)n1nnnc1C(c1cccs1)N1CCc2ccccc21 (stereo not drawn)	2.1%	-0.8	8.9	-48.0	3.8
CC(C)[C@H](NC(=O)NCc1ccc(Cl)cc1)C(=O)O	-8.5%	-0.3	0.1	-33.3	-7.8
CCOC(=O)N1CCN(CC(=O)Nc2cccc(Br)c2)CC1	-7.6%	-6.5	0.4	-39.3	-11.6
O=C(Nc1ccc(Br)cn1)C1CCN(S(=O)(=O)c2cccs2)CC1	0.0%	x	-1.6	x	-1.3
CCC(=O)Nc1cc(C(F)(F)F)ccc1N1CCOCC1	-4.8%	8.5	0.0	-27.7	-3.3
CC(Nc1ccccc1)c1cc(Cl)ccc1O (stereo not drawn)	3.1%	1.0	x	-28.9	1.0
Cc1cc(N(C)C)c(C#N)c(NCc2ccccc2)n1	5.2%	-12.9	-1.6	-36.0	-5.0
COc1ccc(NC(=O)c2cc(-c3ccccc3Cl)on2)cc1OC	x	x	-5.5	x	48.9
O=C(NCc1ccccc1)C1=C[C@@H](C2CC2)C[C@@H](OCc2ccc(CO)cc2)O1	2.4%	-6.8	1.6	x	-2.2
C/C(=N\NC(=O)Cc1ccc(Cl)cc1)c1ccccc1O	x	x	-0.4	x	3.1
Cc1ccccc1N=Nc1c(O)[nH]c2ccccc12	x	x	-2.0	x	2.1
COc1cccc(N(C(=O)c2ccco2)C(C(=O)NC2CCCC2)c2cccnc2)c1 (stereo not drawn)	-1.2%	2.5	0.7	-20.9	6.7
CC1=[N+](C)N(c2ccccc2)C(=O)C1N=C/C=C/c1ccccc1 (stereo not drawn)	-6.5%	x	-5.1	x	-3.6
O=C(/C=C/c1cccc([N+](=O)[O-])c1)Nc1cccc(NC(=O)c2ccco2)c1	x	4.9	1.2	3.5	u
COc1ccc(NC(=S)N2CCN(C(=O)c3ccco3)CC2)c(OC)c1	0.6%	19.3	6.2	5.5	2.2
N#Cc1cccc(CS(=O)(=O)c2ccc(Cl)cc2)c1	x	x	-0.3	x	-2.5
CCn1nc2cc(C(=O)NCC34CC5CC(CC(C5)C3)C4)ccc2c1OC	-2.0%	-24.1	-0.7	-18.8	1.1
C=CC(C)Sc1nc2c(c(=O)n(C)c(=O)n2C)n1Cc1ccccc1Cl (stereo not drawn)	10.5%	-1.0	-2.5	-30.3	0.2	Arbovirus anti repeat=2.0
COC(=O)c1ccc(COc2cccc(OC)c2)o1	-3.5%	-6.3	0.7	-20.9	-0.8
COC(=O)[C@]1(C)N[C@H](c2ccc(-c3ccc(Cl)c(Cl)c3)cc2)[C@@H]2C(=O)N(C)C(=O)[C@@H]21	x	x	0.3	x	-9.1
CC(=O)COc1c(-c2ccco2)oc2ccccc2c1=O	x	x	-1.6	x	1.0
O=C(O)C1CCCN(S(=O)(=O)c2ccc(Br)s2)C1 (stereo not drawn)	-6.7%	6.3	0.2	x	-4.4
Cc1ccc(S(=O)(=O)NCCC(=O)NC2CC2)cc1	x	x	-3.9	x	6.5
COc1ccc(OC)c(NC(=O)Cc2coc3ccc4ccccc4c23)c1	3.8%	10.6	8.0	-2.5	6.8

These rows are one share of the data; the hit share may differ from the screen's.
